ERG Ets-DNA blk: qHTS for Small Molecule Inhibitors of the ERG Ets/DNA interaction. fluorescence polarization, His-ERG Ets domain / labelled DNA. Potency, µM (top dose mostly 76.9 µM), inactives show at the highest dose FP activity, negative = inhibition, usual class: inhibitors. 370,000 tested, 0.028% active; active means well fitted inhibition curve with a large enough effect in the polarisation, with a control signal flat; inconclusive means small, poorly fitted or top-dose-only effect, or effect the other way, or a change in a side signal; inactive means no such curve, though single readings can be large or run the other way; the % refers to the polarisation;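 further: polarization taken with two DNA probes labelled with fluorescein and Texas red; potency means the concentration at half of the fitted maximal effect; % of control where 0% means no effect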
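His-tagged ERG Ets domain (1 uM in the protein solution; 300mM KCl, 50mM Tris-HCl, 1mM EDTA, 1mM DTT, pH 7.5) received compound, then a probe mix of 5 nM fluorescein-DNA and 100nM Texas-615-DNA. Fluorescence polarization was read for both dyes.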
APEX1 inh: qHTS Assay for Inhibitors of the Human Apurinic/apyrimidinic Endonuclease 1 (APE1). recombinant APE1, TAMRA/BHQ-2 abasic DNA cleavage fluorescence. 350,000 tested, 0.35% active. Potency, µM (highest dose often 65.8 µM), inactives show at the highest dose activity change, negative = inhibition, usual class: inhibitors. DNA repair nuclease/redox regulator APEX1 (Homo sapiens), P27695;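 further: potency means the concentration at half of the fitted maximal effect; plate controls were vehicle for no effect and reference inhibitor for full effect; nearly all actives have a fitted effect of over 55% in size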
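Kinetic fluorescence read (525 ex/598 em nm, three reads 60 s apart) of AP-site incision; signal = third minus first read. Enzyme 0.75 nM, dual-labelled THF duplex 50 nM, compound preincubation 15 min RT.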
POLK inh: qHTS for Inhibitors of Polymerase Kappa; DNA polymerase kappa (Homo sapiens), Q9UBT6; purified Pol kappa, fluorescent DNA synthesis assay, 10 min; Potency, µM (highest dose often 107 µM), for the others: at the top dose activity, negative = inhibition, hits mostly inhibitors; 400,000 tested, 0.53% active; further: potency means the concentration at half of the fitted maximal effect; on the % scale 0 is the no-effect control and ±100 the full control effect
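Pol kappa 10 nM + cpd, 15 min RT; start w/ substrate 50 nM final; fluorescence kinetic read, 0 and 10 min. Neg ctrl: buffer, no enzyme.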
RGS4 inhibitor: Inhibitors of Regulator of G Protein Signaling (RGS) 4: qHTS; 390,000 tested, 0.039% active; Transcreener GDP fluorescence polarization, RGS4-accelerated GTP hydrolysis; Regulator of G-protein signaling 4 (Homo sapiens), P49798; AID 504845, 2011; Potency, µM (doses to about 114 µM), for the others: at the top dose activity change, negative = inhibition, hits mostly inhibitors; further: potency means the concentration at half of the fitted maximal effect; on the % scale 0 is the no-effect control and ±100 the full control effect; nearly all actives have a fitted effect of over 75% in size; some results filed as inactive show a strong effect at the top dose
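MLSMR compounds (23 nl, pin-transferred) preincubated 10 min at room temperature with a 500nM (2x) first reagent, then RGS4 at 900nM (2x) plus Transcreener GDP mix added; fluorescence polarization (620/688 nm) read before and after 90 min at 30 °C.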
Pol eta inh: qHTS for Inhibitors of Polymerase Eta; recombinant Pol eta, fluorescent DNA replication assay; Potency, µM (top dose mostly 114 µM), without a hit: at the highest dose activity change, negative = inhibition, most hits filed as inhibitors; 390,000 tested, 1.2% active; further: potency means the concentration at half of the fitted maximal effect; on the % scale 0 is the no-effect control and ±100 the full control effect
Target sequence (Q9Y253 whole entry, looked up): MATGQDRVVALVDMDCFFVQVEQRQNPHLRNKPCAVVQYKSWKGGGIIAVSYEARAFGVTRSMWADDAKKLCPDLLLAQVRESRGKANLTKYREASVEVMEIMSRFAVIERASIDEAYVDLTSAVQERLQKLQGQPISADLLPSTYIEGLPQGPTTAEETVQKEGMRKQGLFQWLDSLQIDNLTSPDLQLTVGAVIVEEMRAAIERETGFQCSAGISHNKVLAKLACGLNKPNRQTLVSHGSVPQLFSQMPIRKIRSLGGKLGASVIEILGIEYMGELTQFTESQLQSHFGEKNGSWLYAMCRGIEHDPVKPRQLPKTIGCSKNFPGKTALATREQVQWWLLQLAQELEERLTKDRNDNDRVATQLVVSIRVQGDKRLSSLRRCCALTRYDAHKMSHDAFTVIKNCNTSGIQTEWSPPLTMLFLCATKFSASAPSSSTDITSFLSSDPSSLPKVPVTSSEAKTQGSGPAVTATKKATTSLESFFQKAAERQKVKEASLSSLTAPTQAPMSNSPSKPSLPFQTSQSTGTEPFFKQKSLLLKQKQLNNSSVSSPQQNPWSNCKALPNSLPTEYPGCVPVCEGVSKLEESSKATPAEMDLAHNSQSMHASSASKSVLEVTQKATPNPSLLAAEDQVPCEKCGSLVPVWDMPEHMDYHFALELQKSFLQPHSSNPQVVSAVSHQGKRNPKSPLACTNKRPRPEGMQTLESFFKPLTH
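Pol eta at 10 nM preincubated with compounds 15 min at room temperature; reaction started with fluorescent substrate (50 nM final) and read kinetically at 0 and 10 min.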
Pol beta inh: qHTS Assay for Inhibitors of DNA Polymerase Beta. Pol beta primer extension/strand displacement, fluorescence kinetic. P06746. 340,000 tested, 1.3% active. Potency, µM (series often up to 114 µM), inactives show at the top dose activity change, negative = inhibition, hits mostly inhibitors; further: potency means the concentration at half of the fitted maximal effect; on the % scale 0 is the no-effect control and ±100 the full control effect
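Curves were derived by four-parameter Hill fits of normalized qHTS data. The kinetic fluorescent primer-extension read was taken at 0 and 10 min after 50 nM substrate, following a 15 min room-temperature preincubation of 10 nM enzyme with compounds.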
Anesthetic bind: qHTS Assay for Identification of Novel General Anesthetics | Ferritin light chain (Equus caballus), P02791 | apoferritin/1-aminoanthracene competitive binding, fluorescence | Potency, µM (top dose mostly 77.5 µM), inactives show top-dose activity change, negative = displacement, usual class: inhibitors | 350,000 tested, 0.074% active; further: potency means the concentration at half of the fitted maximal effect; on the % scale 0 is the no-effect control and ±100 the full control effect; nearly all actives have a fitted effect of over 20% in size
Target sequence (P02791 2-175 limits assumed): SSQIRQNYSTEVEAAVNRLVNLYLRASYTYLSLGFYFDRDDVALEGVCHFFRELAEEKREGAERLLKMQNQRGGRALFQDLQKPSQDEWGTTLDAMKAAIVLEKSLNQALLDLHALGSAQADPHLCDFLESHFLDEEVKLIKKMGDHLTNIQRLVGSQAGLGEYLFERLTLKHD
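Horse-spleen apoferritin (10 uM) was mixed with 50% saturated 1-aminoanthracene in PBS, exposed to compounds for 10 min at room temperature, and read for fluorescence (ex 380 nm, em 535 nm). Competitive displacement was fitted with a four-parameter Hill equation.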
LDHA block: qHTS assay for inhibitors of human lactate dehydrogenase; L-lactate dehydrogenase A chain (Homo sapiens), P00338; purified LDHA, NADH/diaphorase-resazurin fluorescence; hits give low values; activity change, % (values are at about 110 or 230 µM); 480,000 tested, 0.15% active; AID 1347041, 2019; in the data active means activity change below about -30%; inconclusive means mostly about -25% to -30%;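 further: plate controls were DMSO wells for no effect and wells without enzyme for full effect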
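Resorufin fluorescence (ex540/em590), read at 0 and 20 min after diaphorase/resazurin addition, reports the NADH left after a 5 min room-temperature reaction of 2 nM human LDH5 with 0.06 mM NADH and 0.2 mM pyruvate.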
* hit, by the source's call; ? = inconclusive; . = no result given; & = joins results of further samples; [ ] = another dose, or the depositor's remark. Unless noted, the call rests on the fitted dose curve; in most records, active means well fitted curve in the direction sought with a large enough effect; inconclusive means small, poorly fitted or top-dose-only effect, or another doubt; inactive means no such curve, though single readings can be large; an effect the other way counts as inactive or inconclusive.

no.	mol	ERG Ets-DNA blk	APEX1 inh	POLK inh	RGS4 inhibitor
1	Cc1ccccc1NC(=S)N(CCCN1CCOCC1)Cc1cccnc1	-3%	5%	-10%	21%
2	COc1ccc(CCN(C)C(=O)c2c(C)nn(CC(C)C)c2Cl)cc1OC	0%	7%	-2%	4%
3	Cc1cccc(C(=O)OC2CCN(C)CC2)c1	10%	0%	-8%	-1%
4	CCc1ccc(N(CC(=O)NC(C)C)C(=O)CCC(=O)Nc2ccccn2)cc1	-3%	-5%	-5%	22%
5	O=C(c1ccc(Br)cc1)c1cc(-c2ccccn2)c(N2CCOCC2)s1	2%	-10%	4%	3%
6	Cc1cc(Cl)ccc1C(=O)C1CCCN(C(=O)c2cscn2)C1 (centres undefined)	14%	3%	0%	20%
7	Cc1ccc(-c2nc3[nH]c(=O)cc(NC(=O)C(C)C)n3n2)cc1	8%	12%	1%	-6%[11.4 µM]
8	CCCCn1c(N)c(N(CC(C)C)C(=O)c2ccc(S(=O)(=O)N3CCCCC3)cc2)c(=O)[nH]c1=O	2%	22%	-6%	-24%
9	O=C(N/N=C/c1ccc(O)c(O)c1)c1ccc(CSc2cccc3cccnc23)cc1	-5%	-11%	?	14%
10	O=C1CSc2cc(Cl)ccc2N1	5%	.	?	?
11	O=C(CCN1C(=O)c2ccccc2C1=O)N1CCN(C2c3ccccc3-c3ccccc32)CC1	.	1%	-6%	-10%
12	C/C(N)=C(/C#N)C(=O)COC(=O)CNC(=O)c1ccc(Cl)cc1Cl	6%	-1%	-1%	1%

no.	Pol eta inh	Pol beta inh	Anesthetic bind	LDHA block
1	-5%	-1%	-3%	-4
2	-26%	?	-6%	-2
3	-18%	-15%	0%	5&-5
4	1%	-2%	-1%	-8
5	-18%	27%	.	-3
6	-11%	8%	-19%	-2
7	-14%	26%	5%	-1
8	-9%	.	.	-3
9	3.5µM*	3.2µM*	?	7
10	-15%	.	.	-6
11	-20%	2%	-10%	2
12	-19%	4%	-8%	-3

The list goes on; it opens with the 2 that closed the last part.
no.	mol	ERG Ets-DNA blk	APEX1 inh	POLK inh	RGS4 inhibitor
11	O=C(CCN1C(=O)c2ccccc2C1=O)N1CCN(C2c3ccccc3-c3ccccc32)CC1	.	1%	-6%	-10%
12	C/C(N)=C(/C#N)C(=O)COC(=O)CNC(=O)c1ccc(Cl)cc1Cl	6%	-1%	-1%	1%
13	CC(C)COC(=O)Nc1nnc(SCCOc2ccccc2)s1	6%	15%	3%	-11%
14	COc1ccc([C@H]2CC(=O)C=C(/C=C/c3ccccc3)C2)cc1	6%	-10%	-5%	-17%
15	COc1cc(NS(C)(=O)=O)c(OC)cc1NC(=O)c1cccc(F)c1	-10%	-2%	-5%	19%
16	O=C(N/C(=C/c1ccc(Cl)cc1)C(=O)N1CCOCC1)c1ccccc1	1%	-9%	-23%	-10%
17	CCOC(=O)c1c(C)[nH]c(C)c1S(=O)(=O)NCC1CCN(Cc2ccccc2OC)CC1	-2%	-10%	4%	12%
18	O=C(NC1=NCCS1)c1cc(-c2ccc(-c3ccccc3)cc2)nc2ccccc12	17%	3%	3%	-3%
19	O=C(COC(=O)CCc1ccccc1)Nc1ccc(F)cc1Cl	13%	-1%[12.4 µM]	-3%	-8%
20	CC(=O)c1ccc(NC(=O)NNS(=O)(=O)c2ccc([N+](=O)[O-])cc2)cc1	-3%	17%	-12%	12%
21	O=C(CNC1CCCC1)Nc1ccc(N2CCCCCC2)cc1	-11%	-3%	-17%	-10%
22	CC(C)(C)Cc1nnc(NS(=O)(=O)c2ccc([N+](=O)[O-])cc2)s1	7%	51%[activator]	0%	-16%
23	CCC(C)(C)NC(=O)CC(c1ccc(OC)cc1)n1cccc1 (centres undefined)	3%	-2%	5%	-2%
24	Cc1cc(C)nc(N/N=C/C2=C(N3CCOCC3)C(=C/c3ccccc3)/CC2)n1	-2%	2%	-1%	-7%

no.	Pol eta inh	Pol beta inh	Anesthetic bind	LDHA block
11	-20%	2%	-10%	2
12	-19%	4%	-8%	-3
13	-5%	7%	-5%	-2
14	-25%	.	.	-7
15	-11%	5%	-12%	2
16	-9%	19%	-5%	-9
17	5%	-1%	-2%	0
18	-21%	2%	-1%	-4
19	-4%	24%	2%	-7
20	1%	?	2%	-1
21	-14%	-2%	?	-9
22	-8%	1%	-5%	0
23	0%	24%	-9%	-6
24	-6%	4%	-23%	-5

Screen by screen, as entered above:
Compounds 14 to 19 in ERG Ets-DNA blk: 6%, -10%, 1%, -2%, 17%, 13%

Later entries.
no.	mol	ERG Ets-DNA blk	APEX1 inh	POLK inh	RGS4 inhibitor
25	Cc1ccc(-c2onc3ccc(C(=O)O)cc23)cc1	5%	20%	-3%	-1%
26	O=C(NCCCn1ccnc1)c1cc2c(ccc3ccccc32)o1	0%	-4%	0%	1%
27	Cc1ccccc1CNc1ccc(C(CC(N)=O)NC(=O)c2ccccc2)cc1[N+](=O)[O-] (centres undefined)	-10%	0%	-15%	2%
28	CC1(C)C([N+](=O)[O-])C(c2ccccc2O)NC(c2ccccc2O)C1[N+](=O)[O-] (centres undefined)	1%	-5%	-6%	-1%
29	Cn1c(CCN2CCN(c3ccccc3)CC2)nc2cc(NC(=O)c3ccco3)ccc21	5%	-9%	-4%	-17%
30	O=C(C1CCN(S(=O)(=O)c2ccccc2F)CC1)N1CCN(Cc2ccc3c(c2)OCO3)CC1	2%	-12%	-18%	-19%
31	CCn1c2ccccc2c2cc(NC(=O)C(C)C)ccc21	.	7%	-6%	16%
32	O=C(CSc1n[nH]c(-c2cccnc2)n1)Nc1ccccc1C(F)(F)F	8%	2%	-2%	-18%
33	O=C(COc1ccccc1[N+](=O)[O-])Nc1ccc(Br)cc1	7%	-3%	-2%	-20%
34	COc1ccc(OCCSc2nnnn2C2CCCCC2)cc1	13%	-1%	-8%	-42%
35	Cc1cnc(CN(C)C(=O)c2ccc3oc(Cc4ccccc4)nc3c2)[nH]1	0%	-13%	-11%	27%
36	COc1cccc(-n2c([S-])c(C(=O)Nc3ccc(S(=O)(=O)N4CCOCC4)cc3)[n+]3cc(C(N)=O)ccc23)c1	8%	-4%	-3%	-23%

no.	Pol eta inh	Pol beta inh	Anesthetic bind	LDHA block
25	-7%	?	-13%	-2
26	-20%	-1%	-8%	-10
27	-9%	1%	?	0
28	-13%	0%	?	-1
29	-16%	-1%	-12%	-4
30	-3%	.	.	-7
31	-13%	42%	5%	-7
32	-15%	8%	1%	4
33	-11%	-11%	2%	-1
34	-17%	0%	-7%	-3
35	0%	15%	-14%	-7
36	?	-1%	-9%	3

Next part
no.	mol	ERG Ets-DNA blk	APEX1 inh	POLK inh	RGS4 inhibitor
37	CCn1c(CNc2ccc(OC)cc2)nnc1SCC(=O)N1CCCc2ccccc21	3%	1%	3%	7%
38	COc1ccccc1C(=O)Nc1ccc2ccccc2c1	2%	.	-10%	-7%
39	CCCc1c(O)nc(SC2CC(=O)N(c3ccc(C)c(Cl)c3)C2=O)[nH]c1=O (centres undefined)	-6%	.	-3%	-7%
40	O=C(CCC1CCCN(C(=O)c2cccc(F)c2)C1)N1CCN(c2ccccn2)CC1 (centres undefined)	-5%	7%	-6%	-31%
41	Cc1ccc2nc(C)ccc2c1	.	.	.	.

no.	Pol eta inh	Pol beta inh	Anesthetic bind	LDHA block
37	7%	-1%	?	4
38	-14%	.	.	-2
39	8%	.	.	2
40	-11%	3%	-14%	1
41	.	.	.	0

Part of the list above in another layout:
No.	canonical_smiles	ERG Ets-DNA blk	APEX1 inh	POLK inh	RGS4 inhibitor	Pol eta inh	Pol beta inh	Anesthetic bind	LDHA block
38	COc1ccccc1C(=O)Nc1ccc2ccccc2c1	2%	.	-10%	-7%	-14%	.	.	-2
39	CCCc1c(O)nc(SC2CC(=O)N(c3ccc(C)c(Cl)c3)C2=O)[nH]c1=O (centres undefined)	-6%	.	-3%	-7%	8%	.	.	2
40	O=C(CCC1CCCN(C(=O)c2cccc(F)c2)C1)N1CCN(c2ccccn2)CC1 (centres undefined)	-5%	7%	-6%	-31%	-11%	3%	-14%	1
41	Cc1ccc2nc(C)ccc2c1	.	.	.	.	.	.	.	0

Exported as labelled records: 3 of the compounds above.
3. Cc1cccc(C(=O)OC2CCN(C)CC2)c1
  ERG Ets-DNA blk: 10%
  APEX1 inh: 0%
  POLK inh: -8%
  RGS4 inhibitor: -1%
  Pol eta inh: -18%
  Pol beta inh: -15%
  Anesthetic bind: 0%
  LDHA block: 5&-5

5. O=C(c1ccc(Br)cc1)c1cc(-c2ccccn2)c(N2CCOCC2)s1
  ERG Ets-DNA blk: 2%
  APEX1 inh: -10%
  POLK inh: 4%
  RGS4 inhibitor: 3%
  Pol eta inh: -18%
  Pol beta inh: 27%
  Anesthetic bind: .
  LDHA block: -3

38. COc1ccccc1C(=O)Nc1ccc2ccccc2c1
  ERG Ets-DNA blk: 2%
  APEX1 inh: .
  POLK inh: -10%
  RGS4 inhibitor: -7%
  Pol eta inh: -14%
  Pol beta inh: .
  Anesthetic bind: .
  LDHA block: -2

A portion of the library; count on the stated rates, not on these rows.
